From PubChem
SARS PLP yeast: SARS-CoV PLP inhibition in yeast. S. cerevisiae expressing SARS-CoV PLpro, growth rescue; control for the full effect not named in the record. Potency, µM (titrated, usually from 32.9 µM), for the others: at the top dose activity, positive = growth rescue. 330,000 tested, 0.19% active; active means well fitted rising curve with a large enough effect; inconclusive means small, poorly fitted or top-dose-only effect; inactive means no such curve, though single readings can be large or run the other way; note: 0% is about no effect; nearly all actives have a fitted effect of over 55% in size; growth read by luminescence after 48 h
2A StopGo: lowers the luciferase signal of an FMDV 2A StopGo reporter; 410,000 tested, 1.2% active; human cells with a luciferase reporter of 2A StopGo recoding; control for the full effect not named in the record; AID 1159524; Potency, µM (titrated, usually from 57.9 µM), inactives show at the top dose signal change, negative = less light; active = well fitted falling curve with a large enough effect; inconclusive = small, poorly fitted or top-dose-only effect; inactive = no such curve, though single readings can be large or run the other way; tested in HEK293T cells; note: % is set by controls: 0 for no effect and ±100 for the full control effect; nearly all actives have a fitted effect of over 45% in size; luciferase light after 4 h
MARV entry inh: inhibitors of Marburg virus binding or cell entry. Marburg virus pseudotyped entry inhibition, cell reporter; control for the full effect not named in the record; about a third of the inactives were read at about 46 µM. Potency, µM (titrated, usually from 37.8 µM), for the others: top-dose activity change, negative = inhibition, hits mostly inhibitors. 300,000 tested, 1.8% active. AID 540276; active = well fitted inhibition curve with a large enough effect; inconclusive = small, poorly fitted or top-dose-only effect, or effect the other way; inactive = flat fitted curve, though single readings scatter; tested in HEK293 cells; about a fifth of its hits are not listed in these tables; note: % is set by controls: 0 for no effect and ±100 for the full control effect; luciferase read-out
RE007 growth inh: less growth of the S. pombe RE007 Vpr strain; S. pombe RE007 Vpr strain, BacTiter-Glo ATP luminescence, 24 h; control for the full effect not named in the record; Potency, µM (highest dose often 92.2 µM), inactives show at the top dose activity change, negative = less growth; 360,000 tested, 0.21% active; AID 651644; active = well fitted falling curve with a large enough effect; inconclusive = small, poorly fitted or top-dose-only effect; inactive = no such curve, though single readings can be large or run the other way;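 note: % is set by controls: 0 for no effect and ±100 for the full control effect; nearly all actives have a fitted effect of over 50% in size; the assay follows cell death caused by Vpr and the record does not say whether a fall means rescue or toxicity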
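Fission yeast strain RE007, carrying one chromosomally integrated HIV-1 vpr copy, was seeded at OD 0.01 in PMG+AL medium with 23 nL pinned compound. After 24 h at 30 °C and 99% humidity, viability was read by BacTiter-Glo luminescence.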
Cruzain noTriton: blocks cruzain activity in detergent-free assay. Potency, µM, without a hit: max response, negative = inhibition, hits mostly inhibitors. purified cruzain, Z-FR-AMC fluorescence, no detergent. 200,000 tested, 2.3% active. P25779;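 note: plate controls were enzyme without inhibitor for no effect and buffer without enzyme for full effect; nearly all actives have a fitted effect of over 40% in size; top concentration of the series not given in the record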
Target sequence (P25779 123-467 limits assumed): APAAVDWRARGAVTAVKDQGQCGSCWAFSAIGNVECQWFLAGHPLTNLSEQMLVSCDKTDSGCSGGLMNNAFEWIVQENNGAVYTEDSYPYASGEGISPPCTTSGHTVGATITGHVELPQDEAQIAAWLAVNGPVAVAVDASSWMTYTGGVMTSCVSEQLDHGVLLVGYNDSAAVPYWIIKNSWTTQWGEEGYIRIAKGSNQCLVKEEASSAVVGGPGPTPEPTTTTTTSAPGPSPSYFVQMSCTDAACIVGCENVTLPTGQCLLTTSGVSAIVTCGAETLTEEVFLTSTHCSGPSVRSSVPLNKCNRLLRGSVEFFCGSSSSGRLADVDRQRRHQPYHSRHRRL
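Purified cruzain at 1.5 nM, pre-incubated 15 min with compound at room temperature in 100 mM sodium acetate pH 5.5, 5 mM DTT, 0.00005% Triton X-100. Reaction started with 2 uM Z-FR-AMC; AMC fluorescence increase over 60 s gives rate.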
NS1 inh: blocks influenza NS1 protein function. S. cerevisiae slowed by influenza A NS1, growth recovery by OD600. Potency, µM (doses to about 46.1 µM), inactives show top-dose activity, positive = more growth. 270,000 tested, 0.4% active; active means well fitted rising curve with a large enough effect; inconclusive means small, poorly fitted or top-dose-only effect; inactive means no such curve, though single readings can be large or run the other way; note: nearly all actives have a fitted effect of over 50% in size
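Recovery from NS1-induced slow growth read by OD600 in budding yeast switched to galactose assay medium (pH 6.0, -URA) at 1:100 dilution. Compound 23 nl per well; the matching strain lacking NS1 serves as control.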
Cruzain inh Det: blocks cruzain activity in presence of Triton detergent. P25779. purified cruzain, Z-FR-AMC fluorescence, 0.01% Triton. Potency, µM, without a hit: max response, negative = inhibition, usual class: inhibitors. 200,000 tested, 0.43% active;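 note: plate controls were neutral wells for no effect and buffer without enzyme for full effect; nearly all actives have a fitted effect of over 40% in size; top concentration of the series not given in the record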
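Detergent-containing run (0.01% Triton X-100) in acetate buffer pH 5.5 with 5 mM DTT: enzyme at 1.5 nM final, 15 min compound preincubation at room temperature, then 2 uM Z-FR-AMC substrate. Activity taken as 60 s fluorescence increase at 360/450 nm.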
Lassa entry inh: inhibitors of Lassa virus binding or cell entry | Lassa virus pseudotype entry inhibition, cell reporter; control for the full effect not named in the record | 300,000 tested, 1.2% active | Potency, µM (doses to about 37.9 µM), for the others: at the top dose activity change, negative = inhibition, most hits filed as inhibitors | AID 540256; active means well fitted inhibition curve with a large enough effect; inconclusive means small, poorly fitted or top-dose-only effect, or effect the other way; inactive means flat fitted curve, though single readings scatter; tested in HEK293 cells; note: % is set by controls: 0 for no effect and ±100 for the full control effect; nearly all actives have a fitted effect of over 50% in size; luciferase read-out
* marks the source's active call; other numbers are inactive results; ? = inconclusive; · = no result given; [ ] = another dose, or the depositor's remark. Unless noted, calls come from the whole dose curve; as a rule, active = well fitted curve in the direction sought with a large enough effect; inconclusive = small, poorly fitted or top-dose-only effect, or another doubt; inactive = no such curve, though single readings can be large; an effect the other way counts as inactive or inconclusive. Potency is the fitted concentration of half-maximal effect.

SMILES	SARS PLP yeast	2A StopGo	MARV entry inh	RE007 growth inh	Cruzain noTriton	NS1 inh	Cruzain inh Det	Lassa entry inh
O=C(NCCc1cccs1)c1ccc(Cn2c(SCc3cccc(F)c3)nc3cccnc32)cc1	·	-16%	?	·	-18%	·	-4.3%	·
OCc1nnc2c3ccccc3c(-c3ccccc3)nn12	5%	·	0%	-2%	2%	4%	3.9%	2%
O=C(Nc1cccc(C(=O)O)c1)/C(=C\c1ccc2c(c1)OCO2)NC(=O)c1ccc(Br)o1	0%	31%[activator]	-1%[46.1 µM]	-8%	·	·	·	-1%
CC(=O)Nc1ccc(C(=O)/C=C/c2ccc[nH]2)cc1	1%	51%[activator]	18%[46.1 µM]	-4%	·	1%	·	-3%
Cc1cc(C(=O)Nc2ccccc2N2CCOCC2)c(C)o1	0%	-12%	5%[46.1 µM]	-10%	·	-5%	·	4%
Cc1ccc(NC(=O)CCOc2ccccc2C)cc1C	-2%	0%	?	-7%	·	-39%	·	?
N#CC1=C(N)N(c2ncn[nH]2)C2=C(C(=O)CCC2)C1c1ccccc1 (centres undefined)	0%	-22%	-4%[46.1 µM]	-12%	·	·	·	21%[46.1 µM]
CCOCCCNC(=O)CCc1nnc2ccc(N3CCN(c4cccc(OC)c4)CC3)nn12	·	-4%	·	·	?	·	-2.3%	5%[46.1 µM]
Cc1cc(NC(=O)CN(C)CCOc2ccccc2)ccc1Br	-7%	-23%	4%	20%	·	·	·	-25%
CCOc1ccc(S(=O)(=O)N2CCCCC2)cc1NC(=O)CC1OC(=O)c2ccccc21 (centres undefined)	-2%	1%	?	-19%	·	·	·	-2%
Cc1ccccc1-c1noc(-c2ccccc2OCC(=O)Nc2ccccc2[N+](=O)[O-])n1	·	-23%	?	·	-12%	·	-9.4%	-17%[46.1 µM]
CCN(CC)c1ccc(NC(=O)/C=C/c2cc(Br)ccc2OC)cc1	-5%	0%	-5%	-30%	25µM*	-17%	-3.6%	-7%
C#CCOC(=O)CCCC(=O)Nc1ccccc1OC	2%	-5%	-21%	3%	5%	-3%	3.8%	16%
CCOc1ccc(C(C(=O)NC2CCCCC2)N(C(=O)c2ccco2)c2ccc(-n3cnnn3)c(C)c2)cc1 (centres undefined)	-5%	-15%	?	-3%	?	-1%	-2.3%	-15%
Cc1ccc(C(=O)CC(C(=O)O)P(=O)(c2ccccc2)c2ccccc2)cc1 (centres undefined)	0%	10%	17%[46.1 µM]	1%	·	2%	·	-2%
O=C(Nc1ccc2c(c1)OCO2)N1CCN(c2ncccn2)CC1	-2%	47%[activator]	?	-3%	2%	3%	-1.2%	?
Cc1ccc(-c2nc3ncccc3o2)cc1NC(=S)NC(=O)c1ccco1	-2%	-1%	?	1%	·	·	·	7%[46.1 µM]
N#CCCn1cc(C(=O)NCc2ccccc2)c(-c2ccc3c(c2)OCCO3)n1	0%	99%[activator]	?	0%	·	0%	·	?
Cc1ccccc1-c1nc2ccccc2c(=O)n1/N=C/c1ccc([N+](=O)[O-])cc1	·	-20%	16%[46.1 µM]	7%	·	·	·	9%
C/C(CC(=O)Nc1ccc(Cl)cc1)=N\NC(=O)C(=O)N1CCCCC1	0%	75%[activator]	?	-5%	·	-3%	·	4%
CCCNC(=O)c1csc(Nc2cccc3ccccc23)n1	-19%	-13%	·	-3%	·	-167%	·	·
Cc1ccc2cc3c(N)c(C(=O)Nc4c(C)[nH]c(=O)[nH]c4=O)sc3nc2c1	19%	-4%	5%	4%	-26%	?	-10%	19%
COc1ccccc1NC(=O)c1nnn(CC(=O)Nc2ccccc2)c1N	3%	17%	3%	0%	?	1%	-2.5%	1%
CC12CCC(=O)N1C(C(=O)N1CCN(S(=O)(=O)c3ccc(F)c(F)c3)CC1)CS2 (centres undefined)	-4%	-15%	8%[46.1 µM]	-11%	·	·	·	13%
COc1ccc(N=Cc2c(O)cc(C)oc2=O)cc1	-1%	0%	6%[14.2 µM]	-8%	·	11%	·	?
COc1ccc(CNC(=O)CCc2cn(Cc3cc(C)ccc3C)c3ccccc23)cc1OC	·	-25%	·	·	?	·	-6.2%	0%[46.1 µM]
COc1ccc(C2=Nc3ccccc3N(CC(=O)Nc3cccc(C(C)=O)c3)C(=O)C2)cc1	·	-4%	·	·	?	·	-2.2%	-19%[46.1 µM]
O=C(NCc1ccco1)c1c(O)c2cccc3c2n(c1=O)CCC3	0%	27%	?	-2%	-5%	-5%	-16%	0%
CCCCc1cc(O)c(CCCC)c(O)c1	-39%	23%	-6%[46.1 µM]	?	1%	-157%	-6.5%	?
O=C(CSc1ccc(-c2cccnc2)nn1)N1CCCC1	-4%	-5%	-3%	2%	·	·	·	16%
CCc1cc[n+](C2=C([O-])c3ccccc3C(=O)/C2=N\S(=O)(=O)c2cccs2)cc1	-17%	?	7.1µM*	?	-7%	14%	-10%	18µM*
Cc1ccc(S(=O)(=O)N(CC(=O)Nc2ccc(C(N)=O)cc2)C(=O)N2CCN(C)CC2)cc1	2%	-3%	?	4%	·	·	·	5%
O=C(Cn1c(=O)c2cccn2c2ccc(F)cc21)N1CCN(c2ccccc2F)CC1	·	-11%	·	·	-4%	·	-0.4%	4%[46.1 µM]
COc1cccc(CNC(=S)Nc2cc(C)ccc2C)c1	0%	12%	-13%[46.1 µM]	19%	·	-5%	·	-3%
CC(=O)Nc1cccc(C(=O)N2CCN(Cc3ccccc3)CC2)c1	-7%	-3%	-2%	-9%	5%	-1%	4.4%	13%
O=C(Cc1ccccc1)NC(NNc1ccccc1)(C(F)(F)F)C(F)(F)F	-7%	-11%	0%	2%	-3%	-2%	-7.8%	2%
CC(=O)c1ccc(S(=O)(=O)NCCC(=O)OC(C)C(=O)Nc2ccc(F)cc2)cc1 (centres undefined)	-3%	-21%	-13%[46.1 µM]	-4%	·	·	·	-29%
NC(=O)COC(=O)CC1CC2CCC1C2 (centres undefined)	1%	-19%	16%[46.1 µM]	1%	·	4%	·	9%[46.1 µM]
O=C(c1cccc([N+](=O)[O-])c1)N1CCN(c2n[nH]c(=O)[nH]c2=O)CC1	-1%	-6%	3%[46.1 µM]	14%	·	-61%	·	7%
CC(C)(C)c1nnc(NS(=O)(=O)c2ccc([N+](=O)[O-])cc2)s1	5%	5%	·	2%	·	4%	·	·
Cc1cccc(C(=O)Nc2ccc3c(c2)nc(C)n3C)c1	-1%	-19%	?	-21%	·	2%	·	?
O=C(Cc1ccc(Cl)c(Cl)c1)N1CCCCC1CN1CCCC1 (centres undefined)	·	-26%	8.9µM*	·	-3%	-7%	-4.9%	?
O=[N+]([O-])c1cc(-c2nc(-c3ccccc3)no2)ccc1N1CCN(c2ccccc2)CC1	·	-9%	2%[46.1 µM]	·	5%	·	-3.2%	13%[46.1 µM]
CC(C)OC(=O)CCC(=O)Nc1nc2ccccc2s1	-7%	40%[activator]	17%	0%	0%	-16%	1.9%	29%
CCOc1ccc(NS(=O)(=O)c2ccc(C(=O)NC3CCC(O)CC3)cc2)cc1 (centres undefined)	·	8%	?	1%	·	·	·	-14%
O=C(N/C(=C/c1ccco1)C(=O)N1CCOCC1)c1ccc([N+](=O)[O-])cc1	2%	4%	·	-2%	·	13%	·	·
O=C(CSc1nnc(-c2ccc([N+](=O)[O-])cc2)o1)Nc1ccccn1	0%	2%	?	-8%	·	3%	·	-26%
Cn1c(CNC(=O)c2ccc3c(c2)OCO3)nnc1SCC(=O)Nc1ccccc1Cl	9%	17%	11%[46.1 µM]	-20%	·	4%	·	·
COCC(=O)N(C)CC1CCCN(CCc2ccccc2OC)C1 (centres undefined)	0%	-3%	?	4%	·	6%	·	21%
O=C(CN1C(=O)C2C3C=CC(C3)C2C1=O)OCC(=O)c1ccc(Cl)c([N+](=O)[O-])c1 (centres undefined)	·	-20%	-8%[46.1 µM]	-1%	·	·	·	?
CCOC(=O)C(NC(=O)c1ccc(F)cc1)(Nc1sc2c(c1C(N)=O)CCC2)C(F)(F)F (centres undefined)	-5%	-10%	4%	10%	-17%	-9%	-7.3%	6%
O=C1c2ccccc2C(=O)N1CC1=CCS(=O)(=O)C1	0%	-21%	6%	5%	7%	-16%	8.0%	0%
CCNC(=O)c1c(O)c2cccc3c2n(c1=O)CC3	-7%	18%	9%	-6%	-3%	-87%	1.7%	19%
Cc1cc(C)n(-c2cc(N3CCOCC3)nc(-c3ccccc3)n2)n1	-1%	·	?	14%	?	-17%	5.3%	2%
Cc1ccc2nc(-c3ccc(S(=O)(=O)N4CCCCC4)cc3)cn2c1	-1%	18%	?	3%	·	1%	·	22%
COc1ccccc1CNC(=O)c1ccc2nc3[nH]c4ccccc4c3nc2c1	10%	33%[activator]	?	2%	?	-5%	-2.5%	?
Cc1cccc(OCC(=O)Nc2ccccc2N2CCN(C)CC2)c1	0%	-26%	-4%[46.1 µM]	-8%	·	4%	·	1%
O=C(O)CCc1nn2c3ccccc3n(CC(=O)c3cccs3)c2nc1=O	2%	3%	?	-1%	·	·	·	?
O=S(=O)(/C=C/c1ccccc1)N1CCOCC1	?	-4%	·	-12%	·	-6%	·	·
COc1cccc(S(=O)(=O)Nc2ccc3sc(C)nc3c2)c1	9%	19%	?	11%	-1%	?	2.2%	-20%
Cc1cccc(N2CC(O)=C(c3nc4ccccc4n3C)C2=N)c1	3%	25%	27%	-2%	-19%	-7%	-0.3%	6%
Cn1nnc(NC(=S)NC(=O)c2cccc3c(Cl)cccc23)n1	5%	-14%	·	-19%	·	-18%	·	·
CC(/C=N\NC(=O)CN1CCN(S(=O)(=O)c2ccc(C)cc2)CC1)=C\c1ccccc1	-20%	?	?	-2%	27%	-29%	-5.1%	?

Random excerpt: 2 compounds from above
SMILES	SARS PLP yeast	2A StopGo	MARV entry inh	RE007 growth inh	Cruzain noTriton	NS1 inh	Cruzain inh Det	Lassa entry inh
Cc1cccc(N2CC(O)=C(c3nc4ccccc4n3C)C2=N)c1	3%	25%	27%	-2%	-19%	-7%	-0.3%	6%
O=C(O)CCc1nn2c3ccccc3n(CC(=O)c3cccs3)c2nc1=O	2%	3%	?	-1%	·	·	·	?
